# Compound activity: PubChem BioAssay, ICCB-Longwood Screening Facility, Harvard Medical School
# KSHV LANA nucl: inhibitors of KSHV LANA binding to nucleosomes; FITC-LANA1-23 / chicken nucleosome fluorescence polarization; hits give low values; AID 720717; z-score (no concentration beside the values); 51,000 compounds, 0.3% hits;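 active = both repeat wells score below -2 in polarization z-score versus plate sample wells, excluding overly bright wells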;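 also: 100 nL library stock added to about 30 µL; numbers are from one replicate; some results filed as inactive read as strong as hits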
#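 Test system: purified chicken nucleosomes with FITC-labelled LANA N-terminal peptide (1-23); Input: 240 nM purified chicken nucleosomes (480 nM peptide binding sites), final; Medium: TEN-BT buffer, pH 7.5; Timing: 10–45 min, room temperature; Technique: fluorescence polarization, 480 nm excitation, 535 nm parallel and perpendicular emission; Replication: duplicates.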
# BasE inh: blocks the Acinetobacter baumannii siderophore enzyme BasE; purified BasE, fluorescence polarization binding displacement; inhibition, % (concentration not given with the values); 84,000 compounds, 0.1% hits;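 active = both replicates above 25% with normal brightness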;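 also: 0% = negative plate control signal and 100% = positive plate control signal; stock transfer was 100 nL into about 30 µL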
# * marks the source's active call; other numbers are inactive results; . = not tested or not shown. The list is partial, so the mix of outcomes need not match the whole.
# Value order: KSHV LANA nucl	BasE inh
O=C(NCC1COc2ccccc2O1)Nc1ccc(NC(=O)NCC2COc3ccccc3O2)cc1 (configuration not stated)
  .	-0.3
Nc1ccc(C(=O)NCC2COc3ccccc3O2)cc1 (configuration not stated)
  0.49	-2.8
O=C(Nc1nccs1)c1ccc(N2C(=O)CCC2=O)cc1
  0.49	-0.7
O=C(CCn1cccc1)NC1CC1
  -1.8	1.9
CCc1cc(=O)oc2c(O)c(O)ccc12
  -0.97	0.4
CCc1cc2c3c(c(=O)oc2cc1OC)CCCC3
  .	1.7
Cc1cc(C)c2c(/N=N/N3CCCCCC3)[nH]nc2n1
  .	-2.3
COc1ccc(C(F)(F)F)cc1NC(=O)c1nc2nc(C)cc(C(F)F)n2n1
  -0.5	1.6
Cc1nc2ccccn2c1C(=O)c1ccccc1
  .	0.7
Cc1ccc(-n2c(O)c(C=NCCN3CCOCC3)c3ccccc3c2=O)cc1C
  .	2.4
CCS(=O)(=O)N(CC(=O)Nc1sc(C)c(C)c1C(N)=O)Cc1ccc(F)cc1
  0.17	-0.8
CC(C(=O)NCc1ccccc1)n1cc(S(=O)(=O)N2CCCC2)ccc1=O (configuration not stated)
  .	1.3
CC1(C)OC(=O)C(=CNCCO)C(=O)O1
  0.25	2.9
CC(Oc1ccc(-c2ccccc2)cc1)c1nnc(-c2cccs2)o1 (configuration not stated)
  .	1.4
Cc1cccc(C(C)C)c1NC(=O)CSc1ncnc2[nH]ncc12
  .	0.2
Nc1ccc2c(c1)C1(OCCO1)C(=O)N2
  -1.3	1.5
CC(C)CN(C(=O)C1COc2ccccc2O1)c1c(N)n(CC(C)C)c(=O)[nH]c1=O (configuration not stated)
  .	0.5
Cc1ccc(S(=O)(=O)N2CCC[C@H]2C(=O)OCC(=O)N2CCc3ccccc32)cc1
  .	-1.1
CCCS(=O)(=O)N1N=C(c2ccc(Cl)cc2)CC1c1ccco1 (configuration not stated)
  1	-14
COc1cccc(-c2csc(-c3ccccn3)n2)c1
  -1	-0.5
CCC1CCCCN1Cc1c(O)ccc2cc(-c3nc4ccccc4[nH]3)c(=O)oc12 (configuration not stated)
  .	8.3
CCN1C(=O)/C(=N\N2CCOCC2)c2ccccc21
  .	0.5
CN1C(C(=O)c2ccccc2)=C(N2CCOCC2)c2ccccc2S1(=O)=O
  .	-1.8
O=c1/c(=C/c2ccc(Br)cc2)sc2nncn12
  1.3	1.0
CS(=O)(=O)N1CCN(c2ncccc2C(F)(F)F)CC1
  .	1.3
O=S(=O)(c1ccc2c(c1)CCN2)N1CCCC1
  .	2.3
CCOc1ccc(C(=O)N(CC#N)CC#N)cc1
  0.034	1.6
O=C(Sc1ccc(Cl)cc1)c1cccnc1Oc1ccccc1
  .	-1.7
COc1ccc(/C=C2\SC(=O)N(CCNC(=O)CC(C)(C)C)C2=O)cc1
  .	2.9
OCC1CCCN(C(=S)Nc2ccc(Nc3ccccc3)cc2)C1 (configuration not stated)
  1	1.9
CCCN1Cc2cccc(C(=O)NCc3ccc(F)cc3)c2C1=O
  -0.3	2.6
COCC(=O)Nc1c(I)c(C(=O)NCC(O)CO)c(I)c(C(=O)N(C)CC(O)CO)c1I (configuration not stated)
  -0.77	-2.2
CC(C(=O)NCCc1ccc(F)cc1)N1CCN(S(=O)(=O)c2ccc3c(c2)OCCCO3)CC1 (configuration not stated)
  .	-0.7
COc1cccc2c1OC1(C)NC(=O)NC2C1C(=O)Nc1cccc(Cl)c1 (configuration not stated)
  0.6	0.5
O=C(CN1CCOc2ccccc21)NC1CCCCCCC1
  -0.5	-1.4
CC(CCc1ccccc1)NC(=O)C1=COCCO1 (configuration not stated)
  .	0.1
CC1CC(C)CN(C(=O)Cn2nnc(-c3cccc(C(F)(F)F)c3)n2)C1 (configuration not stated)
  .	2.0
CCN(Cc1ccccc1)C(=O)CN1C(=O)C2CC=CCC2C1=O (configuration not stated)
  .	3.1
C=CCn1c(=O)c(C2=NS(=O)(=O)c3ccccc3N2)c(O)c2ccccc21
  -0.52	-0.5
Cc1nc(N(CCO)C2CCCCC2)c2nnn(Cc3ccccc3)c2n1
  -0.28	-2.3
O=C(Nc1ccc(Cl)cn1)C1Cc2ccccc2C1
  -0.71	-0.7
O=S(=O)(NCC(c1cccs1)S(=O)(=O)c1ccccc1)c1ccccc1 (configuration not stated)
  -0.83	-0.9
COc1ccc(-c2cc(-c3nnc(N)o3)no2)cc1OC
  0.76	1.8
CSCCCN1CCOCC1
  0.53	-2.5
O=C(CCCCCN1C(=O)CCC1=O)Nc1ccccc1
  0.13	0.8
COc1ccc(/C=N/c2nc3ccccc3n2C)c2c(OC)cccc12
  0.13	1.3
C=CCn1c(C)nnc1SC(C)C(=O)c1c(C)[nH]c2ccccc12 (configuration not stated)
  .	-1.1
O=C(Nc1cccc(C(F)(F)F)c1)c1csc(-c2ccncc2)n1
  0.19	.
CCS(=O)(=O)n1nc(-c2ccco2)nc1N
  -0.96	3.5
CC(Oc1ccc(Cl)cc1)/C(N)=N/O (configuration not stated)
  -0.45	0.5

# 14 compounds out of the list, ordered by molecular weight, falling.
# Value order: KSHV LANA nucl	BasE inh
O=S(=O)(NCC(c1cccs1)S(=O)(=O)c1ccccc1)c1ccccc1 (configuration not stated)
  -0.83	-0.9
COc1cccc2c1OC1(C)NC(=O)NC2C1C(=O)Nc1cccc(Cl)c1 (configuration not stated)
  0.6	0.5
C=CCn1c(=O)c(C2=NS(=O)(=O)c3ccccc3N2)c(O)c2ccccc21
  -0.52	-0.5
CC1CC(C)CN(C(=O)Cn2nnc(-c3cccc(C(F)(F)F)c3)n2)C1 (configuration not stated)
  .	2.0
COc1ccc(/C=N/c2nc3ccccc3n2C)c2c(OC)cccc12
  0.13	1.3
C=CCn1c(C)nnc1SC(C)C(=O)c1c(C)[nH]c2ccccc12 (configuration not stated)
  .	-1.1
CCN(Cc1ccccc1)C(=O)CN1C(=O)C2CC=CCC2C1=O (configuration not stated)
  .	3.1
O=C(CN1CCOc2ccccc21)NC1CCCCCCC1
  -0.5	-1.4
O=C(CCCCCN1C(=O)CCC1=O)Nc1ccccc1
  0.13	0.8
O=C(Nc1ccc(Cl)cn1)C1Cc2ccccc2C1
  -0.71	-0.7
CC(CCc1ccccc1)NC(=O)C1=COCCO1 (configuration not stated)
  .	0.1
CCS(=O)(=O)n1nc(-c2ccco2)nc1N
  -0.96	3.5
CC(Oc1ccc(Cl)cc1)/C(N)=N/O (configuration not stated)
  -0.45	0.5
CSCCCN1CCOCC1
  0.53	-2.5

# Next part.
# Value order: KSHV LANA nucl	BasE inh
CCCCn1c(COc2ccccc2)nc2ccccc21
  .	1.8
Cc1ccc(CNC(=O)c2ccc3c(Cl)c4c(nc3c2)CCCC4)o1
  0.1	-1.5
O=C(CNc1ccc(S(=O)(=O)N2CCCC2)cc1)N1CCN(S(=O)(=O)c2ccccc2)CC1
  .	2.4
CCC1CCC(N2CCN(c3ccc(Cl)cc3)CC2)CC1 (configuration not stated)
  -1	-1.7
COc1ccc(-c2cc(-c3nnc(CON4C(=O)CCC4=O)o3)c3ccccc3n2)cc1OC
  .	-0.6
c1ccc(-n2c(-c3ccco3)nnc2N2CCOCC2)cc1
  .	-1.6
CN(Cc1ccccc1)C(=O)CCc1nc(CN2CCN(C(=O)c3ccccc3)CC2)no1
  .	1.9
CC1Cc2ccccc2N1C(=O)CO/N=C/c1ccccc1OC(F)F (configuration not stated)
  .	-4.2
C=CCN(CC=C)CC(O)Cn1c(C)c(C)c2ccccc21 (configuration not stated)
  0.14	0.0
Cc1ccc(C)c(OCC(O)CNC2CCC(C)CC2)c1C (configuration not stated)
  .	-1.2
CCOc1ccc(-c2c(C)nn3c2NCN(Cc2ccc(C)cc2)C3)cc1OCC
  0.14	-0.8
Cc1nc(C(=O)Nc2cccc(Cl)c2Cl)c(C(F)(F)F)o1
  -0.77	0.1
O=C(CN1CCCC1)Nc1ccccc1C(=O)c1ccccc1
  .	1.9
CC1CC(C)CN(C(=O)COc2ccc(-c3nnco3)cc2)C1 (configuration not stated)
  .	-5.5
CCN(CC)CC(=O)N1c2ccccc2Sc2ccccc21
  -0.14	.
O[C@H](CSc1nc2ccccc2o1)C(F)(F)F
  2.8	.
Cc1cc(C)nc(N/N=C/C=N/Nc2nc(C)cc(C)n2)n1
  .	1.2
O=C(c1ccc(Br)c(S(=O)(=O)N2CCCCC2)c1)N1CCCCC1
  -0.72	-0.6
CCOC(=O)CN1CC=CCC1
  -0.0025	6.4
CCN(CC(=O)NC1CCS(=O)(=O)C1)Cc1nc2sc3c(c2c(=O)[nH]1)CCC3 (configuration not stated)
  .	-1.7
CCc1ccccc1NC(=S)N1CCC(N(C)C(C)C)CC1
  0.48	1.4
Cc1nc(C)n(CC(O)COc2ccc3c4c(c(=O)oc3c2)CCC4)n1 (configuration not stated)
  -0.35	-2.4
CCS(=O)(=O)c1ncc(Cl)c(C(=O)Nc2ccc(Cl)cc2)n1
  1.4	-5.2
C=CCn1c(NCc2cn(-c3ccccc3)nc2-c2cccs2)nc2ccccc21
  -0.76	-0.8
O=C(CN(Cc1ccco1)C(=O)Cc1c(F)cccc1Cl)Nc1ccccc1Br
  .	1.1
CCOC(=O)C1(Nc2nccs2)Sc2ccccc2NC1=O (configuration not stated)
  .	0.1
O=C(O)/C=C/C1=Cc2ccccc2OC1
  .	0.9
CCCn1c(SCC2CCCCO2)nc2ccccc21 (configuration not stated)
  .	-1.3
CSCc1ccc(C(=O)NCc2ccccc2)cc1
  .	1.3
COc1ccccc1CNC(=O)CNC(=O)Cn1ccc2ccccc2c1=O
  -0.68	-0.3

# Compound profiles, from the list above. Values in the order: KSHV LANA nucl | BasE inh
# Cc1nc(C)n(CC(O)COc2ccc3c4c(c(=O)oc3c2)CCC4)n1 (configuration not stated) reads -0.35 | -2.4
# CCCn1c(SCC2CCCCO2)nc2ccccc21 (configuration not stated) reads . | -1.3

# New compounds follow
Molecule	KSHV LANA nucl	BasE inh
Cc1ccc(NC(=S)NN(C)C)cc1	.	-1.7
CC(C)N1C/C(=C\c2ccc(N3CCOCC3)cc2)C(=O)/C(=C/c2ccc(N3CCOCC3)cc2)C1	0.49	-0.6
CC(=O)N1c2ccc(S(=O)(=O)NCC3CCC(C(=O)NCc4ccccn4)CC3)cc2CC1C (configuration not stated)	-0.84	11
N#CC(C#N)=CNc1ccc2oc3ncccc3c(=O)c2c1	0.12	0.3
O=C1c2ccc3c4c(ccc(c24)C(=O)N1c1nccs1)C(=O)N(c1nccs1)C3=O	-0.49	3.4
CCCNC(=O)Cn1nc(C(F)(F)F)c(Br)c1C	-0.79	4.0
CN(C)/C=N/c1nc(-c2ccc3ccccc3c2)cs1	.	-0.6
CC(NC(=O)C1CCC1)c1ccc2c(c1)OCO2 (configuration not stated)	0.62	-0.9
CC(CC(=O)NCC1CCCO1)c1ccccc1 (configuration not stated)	0.3	0.6
COc1ccc(NC(=O)Nc2ncn(Cc3cccc(C(F)(F)F)c3)n2)cc1OC	0.53	-2.0
COc1ccc(CNC(=S)NN)cc1	.	1.4
COc1ccccc1NC(=O)C(NS(=O)(=O)c1cccc2nsnc12)c1ccccc1 (configuration not stated)	-0.29	1.2
O=C(c1cc2c(=O)n3ccccc3nc2s1)N1CCCC1	.	0.0
NC(=O)c1ccc[n+]([C@@H]2O[C@H](COP(=O)([O-])OP(=O)(O)OC[C@H]3O[C@@H](n4cnc5c(N)ncnc54)[C@H](O)[C@@H]3O)[C@@H](O)[C@H]2O)c1	-0.34	.
Cc1nnc(SCC(=O)N(C)C2CCS(=O)(=O)C2)n1Cc1ccccc1 (configuration not stated)	.	3.2
CN(C)S(=O)(=O)c1ccc(C(=O)OCc2nc3ccccc3c(=O)[nH]2)cc1	.	1.4
CC1CC(C)CN(C(=O)Cn2c(=O)oc3ccccc32)C1 (configuration not stated)	.	-1.5
CCNc1nc(NCC)nc(Nn2cnnc2)n1	-0.29	3.5
CC(Oc1ccc(-c2ccc(C#N)cc2)cc1)C(N)=O (configuration not stated)	.	2.1
CCN1CCCC1CNC(=O)Nc1cn(CC(C)C)c(=O)c2ccccc12 (configuration not stated)	.	0.5
COc1ccc(CNC(=O)C(C)OC(=O)c2ccccc2)cc1 (configuration not stated)	.	1.4
COc1ccc(N2C(=O)CC(SCC(=O)O)C2=O)cc1 (configuration not stated)	.	1.8
O=C(NC1CCCCC1)N1CCN(c2ccccn2)CC1	1.6	0.1
Cc1cc(NC(=O)Cc2c(C(=O)O)nnn2-c2ccc(Br)cc2)no1	.	-1.6
CCn1cc(C(=O)N(C)c2ccc(OC)cc2)c2cc(OC)c(OC)cc2c1=O	-0.15	-0.1
O=C(Nc1cccnc1)c1cccc(S(=O)(=O)N2CCc3ccccc32)c1	.	0.8
Cc1[nH]c2ccc(C(=O)NCCCN3CCN(c4ccccc4F)CC3)cc2c1C	0.72	-0.7
CSc1nn2c(=O)c(-c3ccccc3)nnc2s1	-0.87	0.8
O=c1c2c(nc(SCCO)n1C1CCCC1)-c1ccccc1CC21CCCC1	-0.35	-0.3
O=C(NCC1COC2(CCCCC2)O1)Nc1ccccc1 (configuration not stated)	-0.34	1.9
CCC(=O)OC(OP(=O)(CCCCc1ccccc1)CC(=O)N1C[C@H](C2CCCCC2)C[C@H]1C(=O)O)C(C)C (some centres not stated)	-0.18	.
C[C@H]1NC(=O)NC1=O	0.52	0.3
S=C1NC(=S)NC(c2ccc(Br)cc2)N1	0.65	-0.8
CON(C)S(=O)(=O)c1cccc(C(=O)N2CCN(S(=O)(=O)c3ccccc3Br)CC2)c1	.	-0.7
CC1=C(Cc2ccc(OC(=O)c3ccccc3)cc2)C(=O)C(C(C)C)CC1 (configuration not stated)	.	0.3
O=C(NCCc1ccccc1)N1CCOCC1	-0.37	-0.6
